Sa RN4220 lethal: S. aureus RN4220 growth inhibition. OD600, 16 h. inhibition, % (concentration not given with the values). 0.33% of 330,000 active. AID 1259311;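 active = z-score of -3 or lower and OD600 up to 0.18 on both plates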;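 also: plate controls were untreated cells for no effect and reference antibiotic for full effect; stock transfer was 100 nL into about 80 µL; one replicate is shown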
PrP UTR inh: inhibition of PrP 5' UTR reporter expression; cell-based PrP 5' UTR mRNA reporter, plate reader; inhibition, % (no concentration beside the values); 0.35% of 340,000 active; AID 488862;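 active = every replicate at 50% or more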;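 also: 0 = median of the neutral control wells; tested in H4 reporter cells; numbers are from one replicate; inactives centre near -14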
Mtb hypoxia inh: inhibitors of hypoxia-regulated fluorescent reporter in Mycobacterium tuberculosis; M. tuberculosis hypoxia-regulated fluorescent reporter, fluorescence; 0.1% of 300,000 active; fluorescence inhibition, % (concentration not given with the values);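 active = 35 to 45% if threefold the growth effect, above 45% if 1.5-fold the growth effect; inactive = the rest, general growth blockers included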;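 also: wells of about 50 µL received 100 nL stock; 0% = vehicle wells and 100% = reference inhibitor wells; whole bacteria with a GFP reporter of the hypoxia response; strong numbers were not always called active; many hits fall short of the cut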
ugtP null kill: kills S. aureus RN4220 lacking UgtP. S. aureus RN4220 ugtP deletion, OD600 growth, 16 h; some inactives read as strong as hits. growth inhibition, % (no concentration beside the values). 0.54% of 330,000 active;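 active = z-score under -3 and OD600 up to 0.15 on both plates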;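 also: plate controls were untreated wells for no effect and antibiotic for full effect; wells of about 80 µL received 100 nL stock; the first replicate is given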
Bead autofluor: flagged as autofluorescent in microsphere protease counterscreen | 3.1% of 360,000 active | compound autofluorescence counterscreen, microsphere flow cytometry; hits give high values | fluorescence intensity (no concentration beside the values);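 active = at least 3 SD above the mean of all compounds, about 16000 in these data; inconclusive = too few beads counted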;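 also: 100 nL of 1 mM stock went into each well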
BJeLR lethal: kills HRASV12-expressing BJeLR cells. BJeLR (HRASV12) viability, CellTiter-Glo ATP luminescence, 48 h; reference of the scale not given here. inhibition, % (concentration not given with the values). AID 1554. 0.17% of 300,000 active;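 active = replicate mean above 50%; inconclusive = above 50% but judged a plate artefact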;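 also: 50 nL library stock added to about 25 µL; numbers are from one replicate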
Mtb hypoxia inh growth: second read-out of Mtb hypoxia inh, no call of its own (marks repeat the call); growth inhibition, %; measured here: M. tuberculosis growth (absorbance);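 0% = vehicle and 100% = reference antibiotic; read after six days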
An asterisk follows results filed as active; ? = inconclusive; / = not tested or not shown. Rows are unselected; any-hit rate near 4%.

Keys: A = Sa RN4220 lethal; B = PrP UTR inh; C = Mtb hypoxia inh; D = Mtb hypoxia inh growth; E = ugtP null kill; F = Bead autofluor; G = BJeLR lethal
> O=C(NCCCN1CCCC1=O)c1ccc2c(=O)n(-c3ccc(F)cc3)c(=S)[nH]c2c1
  A = 3.0	B = /	C = 4	D = 2	E = 2	F = /	G = -19

> COc1cccc(CNC(=O)CN(c2ccc(C(C)C)cc2)S(=O)(=O)c2c(C)noc2C)c1
  A = 0.6	B = -11	C = 2	D = -5	E = 2	F = 4789	G = -6

> COc1ccc(CN(CCC(c2ccccc2)c2ccc(OC(C)C)cc2)C(=O)CCl)cc1OC (stereo not drawn)
  A = 56	B = 5	C = 15	D = 8	E = 64	F = 2435	G = 68*

> C[C@H](NC(N)=O)C(=O)OCC(=O)Nc1ccc(OC(F)F)cc1
  A = 4.9	B = -13	C = -3	D = -8	E = 2	F = 3880	G = 12

> O=C(O)c1c(NC(=O)c2cccc3ccccc23)sc2c1CCC2
  A = 14	B = -5	C = 2	D = 2	E = -7	F = 9540	G = 2

> CCOc1ccc(-n2c(O)c(C=NNC(=O)C3COc4ccccc4O3)c3ccccc3c2=O)cc1 (stereo not drawn)
  A = 17	B = /	C = -7	D = 3	E = -26	F = /	G = /

> c1ccc2c(CN3CCCCCCC3)c[nH]c2c1
  A = -3.1	B = -35	C = -3	D = 13	E = -15	F = 17395*	G = 6

> COc1ccc(N2CCN(Cc3nc4c(c(=O)[nH]c(=O)n4C)n3CC(C)=O)CC2)cc1
  A = 7.0	B = -17	C = 6	D = 6	E = 16	F = 6207	G = -1

> O=CNc1c(Cl)cc2c(c1Cl)Cc1cc([N+](=O)[O-])ccc1-2
  A = 15	B = -6	C = 5	D = 4	E = -12	F = 3382	G = /

> O=C(O)COCC(=O)N1CCc2c([nH]c3ccccc23)C1C(F)(F)F (stereo not drawn)
  A = 1.8	B = -24	C = 2	D = 1	E = 4	F = 3889	G = -1

> Cc1cccc(NS(=O)(=O)c2cc(C(=O)N3CCCCCC3)ccc2C)c1
  A = /	B = -21	C = /	D = /	E = /	F = ?	G = 0

> O=C(NN=Cc1ccncc1)c1cc2c(ccc3ccccc32)o1
  A = -16	B = /	C = -2	D = 10	E = -12	F = /	G = /

> O=C(NCC(=O)N(c1ccc(F)cc1)C(C(=O)NCC1CCCO1)c1ccccc1)c1ccco1 (stereo not drawn)
  A = 4.4	B = -13	C = 8	D = 8	E = 7	F = 9165	G = -3

> COc1ccc(OCC(=O)N/N=C/c2ccc(N(C)C)cc2)cc1
  A = /	B = -40	C = /	D = /	E = /	F = 2053	G = -9

> Cn1c(=O)n(/N=C/c2ccccc2)c2ccccc21
  A = /	B = -18	C = /	D = /	E = /	F = 2789	G = 5

> CNc1c(NS(=O)(=O)c2ccc(Cl)s2)c(=O)oc2ccccc12
  A = 5.8	B = -16	C = 3	D = 1	E = -5	F = 3088	G = -7

> CC1=Nc2cc(C(=O)NCCCOC(C)C)ccc2Sc2ccccc21
  A = 4.5	B = -20	C = 13	D = 5	E = 8	F = 3486	G = -6

> COc1ccc(N(CCC#N)S(=O)(=O)c2cccc3nsnc23)cc1
  A = 3.7	B = -16	C = -3	D = 9	E = -1	F = 2721	G = -15

> COc1ccc(/C=C(\C)C(=O)c2c(C)cc(C)[nH]c2=O)cc1
  A = -0.3	B = -6	C = -13	D = -6	E = 3	F = 3749	G = -6

> CCC(=Nc1ccc(N)cc1)C1=C(O)C(C(=O)OC)C(C)(C)CC1=O (stereo not drawn)
  A = 4.1	B = -16	C = 1	D = 9	E = 6	F = 9337	G = -13

> Cc1cccc2sc(NC(=O)CNS(=O)(=O)c3ccc(Br)s3)nc12
  A = 3.6	B = -13	C = -4	D = 10	E = -36	F = 11254	G = /

> COc1ccccc1-c1nc2cc3ccccc3cc2nc1-c1ccccc1OC
  A = -4.7	B = -12	C = -26	D = -2	E = 7	F = 2601	G = -9

> Cc1ccccc1OCC(=O)Nc1nc(-c2ccncc2)cs1
  A = -2.7	B = -31	C = 6	D = 6	E = 1	F = 3455	G = /

> N#C/C(=C\c1ccc(-c2ccccc2)cc1)c1nc(-c2ccco2)cs1
  A = 2.0	B = -21	C = 1	D = 2	E = -8	F = 2915	G = -4

> CC(=O)Nc1ccc(S(=O)(=O)N2CCN(c3cccc(C)c3C)CC2)cc1
  A = 15	B = 48	C = -2	D = -3	E = 19	F = 4518	G = -6

> CC(=O)Nc1ccc(C(=O)CSc2nccc(=O)[nH]2)cc1
  A = /	B = -38	C = /	D = /	E = /	F = 4888	G = 6

> CN(Cc1ccc(F)cc1)C(=O)C(c1ccccc1)c1ccccc1
  A = -1.3	B = -22	C = 4	D = 8	E = 10	F = 2894	G = 5

> Cc1ccc(C2/C(=C(/O)c3ccc(Br)cc3)C(=O)C(=O)N2Cc2ccco2)o1 (stereo not drawn)
  A = /	B = -19	C = /	D = /	E = /	F = 2889	G = 1

> Cc1cc(C(=O)OCC(=O)N2CCN(c3ccccc3)CC2)c2ccccc2n1
  A = -0.7	B = -2	C = /	D = /	E = 4	F = 4215	G = 6

> COc1cc2c(c(OC)c1OC)-c1c(cc3c(c1OC)OCO3)C1OC2[C@@H](C)[C@H]1C (stereo partly drawn)
  A = /	B = 7	C = /	D = /	E = /	F = 3911	G = 12

> CCOC(=O)C1C(=O)NC(N2CCc3ccccc32)=NC1c1ccccc1 (stereo not drawn)
  A = 2.0	B = -9	C = /	D = /	E = 6	F = 4889	G = 13

> CCN1C(=O)/C(=C2\SC(=S)N(c3c(C)n(C)n(-c4ccccc4)c3=O)C2=O)c2ccccc21
  A = /	B = -7	C = /	D = /	E = /	F = 20899*	G = 7

> O=C(NCC1(N2CCCCC2)CCCCC1)c1cccc(S(=O)(=O)Nc2ccccc2Cl)c1
  A = 5.8	B = 5	C = -3	D = 6	E = 2	F = 5232	G = /

> COc1ccc(-n2c(O)c(C=NCCN(C)C)c(=O)[nH]c2=O)cc1
  A = 3.8	B = -1	C = -7	D = 3	E = -1	F = 4210	G = 7

> CCOC(=O)c1cc2c(=O)n3ccccc3nc2n(Cc2ccco2)c1=NC(=O)c1ccccc1OC
  A = 9.1	B = -9	C = 2	D = -7	E = 9	F = 3216	G = -5

> CCc1cccc(CC)c1-n1c(SCC(=O)N2CCCc3ccccc32)nc(O)cc1=O
  A = 14	B = 1	C = 3	D = 14	E = 3	F = 3765	G = /

> CCN1CCN(CC2COc3ccccc3O2)CC1 (stereo not drawn)
  A = 5.1	B = -37	C = 2	D = 7	E = 10	F = 3628	G = -1

> O=C(OCCN1CCOCC1)c1ccc2c(c1)OCCO2
  A = 6.1	B = -35	C = /	D = /	E = 6	F = 2998	G = 0

> O=C(NN=Cc1ccsc1)c1cc(-c2cccs2)nc2ccccc12
  A = 2.8	B = /	C = 2	D = 2	E = -4	F = /	G = /

> Cc1noc(C)c1COc1ccccc1C(=O)N(C)CC(=O)Nc1ccc(F)c(F)c1F
  A = 4.5	B = /	C = 14	D = 5	E = 4	F = /	G = /

> O=C(COC(=O)C1(c2ccc(F)cc2)CCCC1)NCc1ccc2c(c1)OCO2
  A = -0.8	B = -1	C = 2	D = 9	E = -3	F = 2536	G = 7

> Cn1ccnc1C1CCCCN1Cc1nc(-c2ccc(Cl)cc2)no1 (stereo not drawn)
  A = /	B = -6	C = /	D = /	E = /	F = 4900	G = 15

> CCCN1CCN(C(=O)CCNC(=O)Cn2cnc3ccccc3c2=O)CC1
  A = 4.3	B = -20	C = 0	D = -5	E = 11	F = 3612	G = -9

> O=C(NCCO)/C(=C\c1ccc2c(c1)OCO2)NC(=O)c1ccc(Br)cc1
  A = 5.8	B = -15	C = -5	D = -6	E = 30	F = 2922	G = -2

> Cc1cc(NC(=O)/C(C#N)=C/c2ccc(-c3ccc(SC(F)F)cc3)o2)n(-c2ccccc2)n1
  A = 0.7	B = -11	C = 9	D = 4	E = -6	F = 2727	G = -2

> Cc1ccc(NC(=O)CN(C)S(=O)(=O)c2cnc[nH]2)c(C)c1
  A = 0.9	B = 2	C = -2	D = -5	E = 7	F = 4474	G = -12

> COc1ccc(Cl)cc1NC(=O)COC(=O)C1CCCCC1
  A = 3.8	B = 3	C = 5	D = 1	E = 2	F = 2867	G = /

> CCCNC(=O)c1ccccc1NC(=O)C1=CSCCO1
  A = -1.6	B = -8	C = -6	D = 4	E = -8	F = 5055	G = -2

> Cc1c(NC(=S)NC(=O)c2ccc(-c3ccc(Cl)cc3)o2)cccc1C(=O)O
  A = 15	B = -14	C = 6	D = -3	E = -11	F = 5043	G = 8

> COCCCNC(=O)c1cn(Cc2c(F)cccc2Cl)nn1
  A = 1.3	B = -10	C = /	D = /	E = 5	F = 4839	G = 3

(listing goes on)
Keys: A = Sa RN4220 lethal; B = PrP UTR inh; C = Mtb hypoxia inh; D = Mtb hypoxia inh growth; E = ugtP null kill; F = Bead autofluor; G = BJeLR lethal
> Nc1cc(=O)[nH]c(SCC(=O)N2CCCc3ccccc32)n1
  A = 8.0	B = 4	C = 3	D = 6	E = 9	F = 16983*	G = -4

> CC1(C)CC(=O)C(C=NCc2ccc3c(c2)OCO3)=C(O)C1
  A = 2.5	B = -13	C = 13	D = 6	E = -1	F = 4185	G = -4

> Cc1ccc(C(C)C)cc1OCCCCN1CCCC1
  A = 5.9	B = -19	C = 22	D = 11	E = 18	F = 10006	G = 7

> CC(Sc1nc2ccccc2s1)C(=O)N(C)Cc1ccccc1 (stereo not drawn)
  A = 7.3	B = -24	C = 10	D = 8	E = 5	F = 3453	G = 0

> COc1ccccc1CN(CC(=O)NCc1ccc2c(c1)OCO2)C(=O)c1csnn1
  A = 0.9	B = -11	C = 10	D = 5	E = 6	F = 3566	G = -9

> C/C=C/c1ccc(OCC(=O)Nc2ccc(OC)c(OC)c2)c(OC)c1
  A = 2.6	B = -21	C = 0	D = 7	E = 12	F = 4279	G = 0

> CCCCn1nnc(NC(=O)COc2ccc(Cl)c(C)c2)n1
  A = -4.2	B = -12	C = 4	D = 10	E = -3	F = 17759*	G = /

> C(=NNc1ncnc2sc3c(c12)CCC3)c1cccs1
  A = -1.6	B = /	C = -15	D = 2	E = -19	F = /	G = /

For reference, part of the list above.
Keys: A = Sa RN4220 lethal; B = PrP UTR inh; C = Mtb hypoxia inh; D = Mtb hypoxia inh growth; E = ugtP null kill; F = Bead autofluor; G = BJeLR lethal
> CCC(=Nc1ccc(N)cc1)C1=C(O)C(C(=O)OC)C(C)(C)CC1=O (stereo not drawn)
  A = 4.1	B = -16	C = 1	D = 9	E = 6	F = 9337	G = -13

> Cc1cccc2sc(NC(=O)CNS(=O)(=O)c3ccc(Br)s3)nc12
  A = 3.6	B = -13	C = -4	D = 10	E = -36	F = 11254	G = /

> COc1ccccc1-c1nc2cc3ccccc3cc2nc1-c1ccccc1OC
  A = -4.7	B = -12	C = -26	D = -2	E = 7	F = 2601	G = -9

> Cc1ccccc1OCC(=O)Nc1nc(-c2ccncc2)cs1
  A = -2.7	B = -31	C = 6	D = 6	E = 1	F = 3455	G = /

> N#C/C(=C\c1ccc(-c2ccccc2)cc1)c1nc(-c2ccco2)cs1
  A = 2.0	B = -21	C = 1	D = 2	E = -8	F = 2915	G = -4

> CC(=O)Nc1ccc(S(=O)(=O)N2CCN(c3cccc(C)c3C)CC2)cc1
  A = 15	B = 48	C = -2	D = -3	E = 19	F = 4518	G = -6

> CC(=O)Nc1ccc(C(=O)CSc2nccc(=O)[nH]2)cc1
  A = /	B = -38	C = /	D = /	E = /	F = 4888	G = 6

> CN(Cc1ccc(F)cc1)C(=O)C(c1ccccc1)c1ccccc1
  A = -1.3	B = -22	C = 4	D = 8	E = 10	F = 2894	G = 5

> Cc1ccc(C2/C(=C(/O)c3ccc(Br)cc3)C(=O)C(=O)N2Cc2ccco2)o1 (stereo not drawn)
  A = /	B = -19	C = /	D = /	E = /	F = 2889	G = 1

> Cc1cc(C(=O)OCC(=O)N2CCN(c3ccccc3)CC2)c2ccccc2n1
  A = -0.7	B = -2	C = /	D = /	E = 4	F = 4215	G = 6

> COc1cc2c(c(OC)c1OC)-c1c(cc3c(c1OC)OCO3)C1OC2[C@@H](C)[C@H]1C (stereo partly drawn)
  A = /	B = 7	C = /	D = /	E = /	F = 3911	G = 12

> CCOC(=O)C1C(=O)NC(N2CCc3ccccc32)=NC1c1ccccc1 (stereo not drawn)
  A = 2.0	B = -9	C = /	D = /	E = 6	F = 4889	G = 13

Source: PubChem
